Compound activity deposited in PubChem BioAssay by several laboratories.
A1 inh: caspase 3/7 activation in MEF A1-2A-BIM cells, primary screen, A1 inhibitor project, cell-based, luminescence, HTS. Caspase-Glo 3/7 luminescence, 3 h; percent of clofoctol response, vehicle zero. caspase activation, % (no concentration beside the values). 330,000 tested, 0.066% active. AID 2462, 2010;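 active = over half of replicate activation scores above 10%, or exactly half above 10 with the replicate mean above 10; inconclusive = replicate mean below 10 yet half the replicates above 10; inactive = over half of replicates below 10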;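 note: wells of about 30 µL received 50 nL stock; many hits fall short of the cut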
Beta apoptosis: inhibitors of cytokine-induced beta cell apoptosis, primary screen, luminescence | INS-1E cytokine-induced death, ATP luminescence, 48 h; percent of positive-control rescue, neutral wells zero | protection from apoptosis, % (no concentration beside the values) | 300,000 tested, 0.8% active;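 active = all replicates at 75% or more, or half of them and the mean; inconclusive = half reach 75% but not the mean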;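 note: 0% = cytokine-treated negative control wells and 100% = positive control rescue; higher means more ATP so stronger rescue from cytokine killing; wells of about 40 µL received 100 nL stock; the first replicate is given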
T cruzi inh: inhibitors of intracellular T. cruzi growth, primary screen, luminescence, NIH3T3 host cells; T. cruzi beta-gal in NIH3T3, 90 h; inhibition, % (test concentration not listed); 300,000 tested, 1.4% active; AID 1885, 2009;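 active = mean inhibition across valid replicates above about 55%, limit read from the data; inconclusive = mean below that limit but half or more replicates reach it; inactive = mean below it, under half of replicates reach it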;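 note: signal also drops with host cell toxicity which is not excluded here; 0% = plate median of DMSO wells and 100% = zero luminescence signal; higher percent means less beta-gal luminescence so fewer parasites; stock transfer was 50 nL into about 50 µL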
rRNA inh HTS: reduced GFP signal of wild-type E. coli, primary screen, bacterial rRNA inhibitor project, GFP/RFP fluorescence, OD600, single point; E. coli WT GFP vs humanized-ribosome RFP mutants, 24 h; hits give low values; DMSO median 0, no signal -100; GFP signal change (wild-type ribosome), % (no concentration beside the values); 350,000 tested, 1.6% active;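 active = significant combined selectivity score with lowered wild-type GFP, culture density cut under 30%, mutant RFP and density less affected; inactive = any of these conditions unmet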; note: one replicate is shown; some compounds called inactive have numbers as strong as hits
E coli growth: E. coli growth inhibition, primary screen, OD600; Escherichia coli growth, 23 h; hits give low values; OD600 absorbance (concentration not given with the values); 330,000 tested, 0.21% active; AID 1053175, 2014;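 active = OD600 absorbance below the run mean of sample wells minus 3.6 SD, in any replicate, cut at about 0.56 in these data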;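 note: stock transfer was 300 nL into about 60 µL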
MLL AF4-AF9 inh: inhibitors of AF4 peptide binding to AF9, primary screen, biochemical, AlphaScreen, biotin-AF4 peptide, FLAG-AF9, single point. AID 651704, 2012. inhibition, % at 10 µM. Protein AF-9 (Homo sapiens), P42568. 350,000 tested, 0.47% active;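 active = every replicate reaching a set inhibition limit, whatever the replicate mean, cut at about 25% in these data; inconclusive = mean inhibition reaches that limit but some replicates miss it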;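 note: 0% = plate neutral control median and 100% = total signal loss; the record names both 10 and 1 µM as test concentration; the first replicate is given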
Target sequence (P42568 whole entry, looked up): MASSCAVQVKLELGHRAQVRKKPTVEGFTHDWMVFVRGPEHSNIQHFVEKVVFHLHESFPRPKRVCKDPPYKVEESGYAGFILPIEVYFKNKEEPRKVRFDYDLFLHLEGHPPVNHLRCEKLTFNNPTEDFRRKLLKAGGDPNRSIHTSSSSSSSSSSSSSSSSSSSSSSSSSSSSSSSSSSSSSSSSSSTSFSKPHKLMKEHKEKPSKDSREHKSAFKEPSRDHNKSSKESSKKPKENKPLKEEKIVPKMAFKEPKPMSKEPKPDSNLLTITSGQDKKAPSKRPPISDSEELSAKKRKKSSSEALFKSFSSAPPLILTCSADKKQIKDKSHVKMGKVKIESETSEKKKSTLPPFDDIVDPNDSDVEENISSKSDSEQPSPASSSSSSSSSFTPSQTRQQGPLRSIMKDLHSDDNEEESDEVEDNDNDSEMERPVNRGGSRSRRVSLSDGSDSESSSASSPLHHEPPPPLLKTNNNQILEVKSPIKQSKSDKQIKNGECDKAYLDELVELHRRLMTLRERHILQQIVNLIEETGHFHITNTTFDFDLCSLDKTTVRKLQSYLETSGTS
UCH37 DUB inh: inhibitors of human UCH37 deubiquitinase, primary screen, biochemical, Ub-AMC cleavage, fluorescence; 330,000 tested, 0.33% active; Ubiquitin carboxyl-terminal hydrolase isozyme L5 (Homo sapiens), Q9Y5K5; purified proteasome/UCH37; inhibition, % (concentration not given with the values);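 active = mean of two replicates above 20%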;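 note: 0% = compound-free wells with enzyme and 100% = wells lacking proteasome; stock transfer was 100 nL into about 20 µL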
Target sequence (Q9Y5K5 whole entry, looked up): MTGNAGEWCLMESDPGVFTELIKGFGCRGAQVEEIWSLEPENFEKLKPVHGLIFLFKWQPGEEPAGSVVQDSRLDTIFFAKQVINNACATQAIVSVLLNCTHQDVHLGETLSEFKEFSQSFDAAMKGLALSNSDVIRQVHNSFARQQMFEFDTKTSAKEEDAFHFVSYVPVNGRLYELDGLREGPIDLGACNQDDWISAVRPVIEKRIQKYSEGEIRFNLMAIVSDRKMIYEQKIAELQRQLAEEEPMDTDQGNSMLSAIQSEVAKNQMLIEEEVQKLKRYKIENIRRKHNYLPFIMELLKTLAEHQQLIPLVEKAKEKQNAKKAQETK
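system = Proteasome-associated human UCH37 deubiquitinase | amount = 0.15 nM proteasome as dispensed | medium = pH 7.4 Tris-HCl (50 mM) with ovalbumin, ATP-MgCl2, DTT | incubation = 30 min preincubation with enzyme, 25 min cleavage at room temperature | detection = AMC fluorescence 355/460 nm | read-out basis = percent inhibition | controls = no-proteasome and no-compound wells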
FGF22 binding: binders of human FGF22 protein, primary screen, FGF22 synaptogenesis inhibitor project, biophysical, thermal shift, single point; Fibroblast growth factor 22 (Homo sapiens), Q9HCT0; recombinant FGF22 thermal shift, SYPRO orange fluorescence; percent of sucrose octasulfate shift, DMSO zero; calls only at 9.99 µM; 340,000 tested, 1.5% active; AID 651658, 2012;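 active = melting point raised past a set limit in the mean and every replicate; inconclusive = no clear call; three in four hits are not shown here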
Target sequence (Q9HCT0 whole entry, looked up): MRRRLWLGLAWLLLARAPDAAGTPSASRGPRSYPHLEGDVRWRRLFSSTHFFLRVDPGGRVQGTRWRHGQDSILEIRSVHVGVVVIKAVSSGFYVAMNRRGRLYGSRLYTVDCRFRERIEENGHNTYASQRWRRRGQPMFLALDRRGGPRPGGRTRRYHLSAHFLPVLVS
rRNA inh HTS OD600: second read-out of rRNA inh HTS, no call of its own (marks repeat the call); OD600 change, %; measured here: OD600 growth;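 optical density of the mix in the first replicate; 0 = DMSO median and -100 = no signal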
rRNA inh HTS RFP: also measured in rRNA inh HTS; calls as there; RFP signal change, %; measured here: RFP humanized mutant strains;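 first replicate; 0 = DMSO median and -100 = no signal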
* = called active by the depositor; i = inactive; ? = inconclusive; / = not tested or not shown; + = active, no number; & = joins results of further samples. An excerpt; count on the stated rates, not on these rows.

#	SMILES	A1 inh	Beta apoptosis	T cruzi inh	rRNA inh HTS	rRNA inh HTS OD600	rRNA inh HTS RFP	E coli growth	MLL AF4-AF9 inh	UCH37 DUB inh	FGF22 binding
1	C[C@H](CO)N1C[C@H](C)[C@@H](CN(C)C(=O)Nc2ccc(C(F)(F)F)cc2)Oc2c(NC(=O)CCC(F)(F)F)cccc2C1=O	-0.9	6	/	12	0	0.0	0.77	-9.0	0.2	i
2	c1ccc2c(c1)NC(c1ccncc1)n1c-2nc2ccccc21 (centres undefined)	0.5	15	-21	/	/	/	0.72	/	-45	/
3	COc1ccc(OC)c(NC(=O)CNC(=O)Cn2ccc3ccccc3c2=O)c1	0.7	/	1	5	14	1.7	0.74	-1.4	-0.1	i
4	CC(=O)c1cc2c(cc1NC(=O)CCn1cccc1)OCO2	0.0	0	9	/	/	/	0.7	/	-1.2	/
5	CCN1CCN(c2cc(C)c3cc(NC(=S)N(CC)CC)ccc3n2)CC1	0.3	-1	22	3	13	-8.7	0.69	25*	-4.8	i
6	Cc1ccc(-n2nc3c(c2NC(=O)c2cccs2)CS(=O)(=O)C3)cc1C	0.5	1	-12	7	6	3.7	0.71	-0.1	5.5	i
7	COc1ccc(NC(=O)CN(C)C(=O)CCCSc2nc3ccccc3[nH]2)cc1	-0.8	-7	4	0	-11	-2.5	0.68	-3.0	3.7	i
8	CC(Sc1nnc(-c2ccccc2F)n1C)C(=O)NC1CCCCC1 (centres undefined)	-1.1	-1	/	12	8	1.6	0.69	1.3	4.6	i
9	CC12CCC(CC1=O)C2(C)C (centres undefined)	0.3	-2	/	8	6	2.9	0.63	-4.1	0.5	i
10	COc1cc(CC(=O)OCC(=O)NCc2ccc(C)cc2)cc(OC)c1OC	0.2	-1	/	4	6	-0.5	0.66	3.3	-0.5	i
11	CCNC(=S)N1CCC(C(O)(c2ccccc2)c2ccccc2)CC1	0.6	0	3	10	2	-1.5	/	-0.4	/	i
12	COc1ccc(NC(=O)COC(=O)C2CC(=O)N(c3ccc(C)cc3)C2)cc1 (centres undefined)	-0.3	-6	-13	1	16	0.5	0.7	-0.7	2.5	i
13	CCc1ccc(CNC(=O)CC2C(=O)NCCN2Cc2ccccc2F)nc1 (centres undefined)	0.3	-1	-2	0	7	-2.5	0.68	-0.1	-7.9	i
14	Cc1cccc(NC(=O)/C(=C/c2cccc([N+](=O)[O-])c2)NC(=O)c2cccs2)c1	-0.2	2	15	/	/	/	0.75	/	1.7	/
15	O=C(O)c1cccc(-n2c(/C=C/c3cccc([N+](=O)[O-])c3)nc3ccccc3c2=O)c1	-3.5	-10	-12	9	10	1.6	0.61	2.8	8.7	i

Profiles, looked up by structure. Order of values: A1 inh	Beta apoptosis	T cruzi inh	rRNA inh HTS	rRNA inh HTS OD600	rRNA inh HTS RFP	E coli growth	MLL AF4-AF9 inh	UCH37 DUB inh	FGF22 binding
`C[C@H](CO)N1C[C@H](C)[C@@H](CN(C)C(=O)Nc2ccc(C(F)(F)F)cc2)Oc2c(NC(=O)CCC(F)(F)F)cccc2C1=O` is listed as -0.9	6	/	12	0	0.0	0.77	-9.0	0.2	i
`COc1cc(CC(=O)OCC(=O)NCc2ccc(C)cc2)cc(OC)c1OC` is listed as 0.2	-1	/	4	6	-0.5	0.66	3.3	-0.5	i
`Cc1ccc(-n2nc3c(c2NC(=O)c2cccs2)CS(=O)(=O)C3)cc1C` is listed as 0.5	1	-12	7	6	3.7	0.71	-0.1	5.5	i
`CCc1ccc(CNC(=O)CC2C(=O)NCCN2Cc2ccccc2F)nc1` (centres undefined) is listed as 0.3	-1	-2	0	7	-2.5	0.68	-0.1	-7.9	i

The list goes on:
#	SMILES	A1 inh	Beta apoptosis	T cruzi inh	rRNA inh HTS	rRNA inh HTS OD600	rRNA inh HTS RFP	E coli growth	MLL AF4-AF9 inh	UCH37 DUB inh	FGF22 binding
16	Cc1nc(SCC(=O)NCC2CCCO2)c2c3c(sc2n1)CCCC3 (centres undefined)	-0.8	3	3	-2	-8	-1.7	0.7	-5.0	4.0	i
17	CCc1nnc(NC(=O)CCC(=O)N2CCN(Cc3ccc(F)cc3)CC2)s1	0.9	-2	5	6	9	-2.2	0.68	-0.1	1.9	i
18	N#CC1=C(N)Oc2cc(N)ccc2C1c1ccc(F)cc1F (centres undefined)	0.4	9	2	12	15	35	/	1.4	/	i
19	COc1ccc(C(=O)N2CCN(C3CCCCC3)CC2)cc1OC	0.0	/	-11	4	14	-1.6	0.66	-26	1.4	i
20	COc1ccc2nc(C)[nH]c(=O)c2c1	0.4	-5	-9	6	14	0.8	0.71	/	-7.2	/
21	Cc1cccc2cc(C#N)c(NCCCNS(=O)(=O)c3ccc(Cl)cc3)nc12	-0.4	-5	21	-2	-7	-3.5	0.67	-11	-36	/
22	O=C(NC1CCCCC1)C(c1cccs1)N(CC1CCCO1)C(=O)c1csnn1 (centres undefined)	0.3	-7	0	/	/	/	0.72	/	-1.3	/
23	O=C(Cc1c[nH]c2ccccc12)Nc1nccs1	-1.3	-4	-12	/	/	/	0.73	/	2.9	/
24	COc1cc(SC)ccc1C(=O)Nc1ccc2c(c1)CCN2S(C)(=O)=O	0.4	8	41	/	/	/	0.7	/	4.6	/
25	CCOC(=O)c1c(C)[nH]c(C)c1C(=O)COC(=O)c1sccc1C	0.9	-1	/	3	-10	0.2	0.63	4.8	1.6	i
26	C/C(=N\NC(=O)c1nnn(-c2nonc2N)c1CN1CCC(C)CC1)c1cccc(Br)c1	-1.1	-1	-2	0	3	1.1	/	-9.8	/	i
27	COc1cc(OC)c(OC)cc1CNCC1COc2ccccc2O1 (centres undefined)	0.0	-5	17	26	16	2.4	0.62	0.6	-1.4	i
28	Cc1ccc(-c2nc3ccc([N+](=O)[O-])cc3[nH]2)cc1	-6.8	17	-10	-51	-77	-15	0.53	5.4	4.2	+
29	NC(=O)CSc1nnc(-c2ccco2)n1N	0.9	-1	-8	/	/	/	0.63	/	6.5	/
30	CC1(C)CN(c2ccc(F)cc2)C1=O	0.8	-3	-6	30	25	2.2	0.66	-3.6	1.4	i
31	CN(C)C(=O)c1ccc(-c2cc3onc(-c4ccccc4)c3c(=O)n2C)cc1	-1.0	7	/	-17	-8	-8.4	0.72	-0.4	3.3	i
32	COc1ccc(CN2CCOC2=O)cc1OC	0.4	0	0	2	3	-0.4	0.72	?	-1.1	i
33	CC(Sc1nnc(C2CC2)n1C)C(=O)Nc1ccc(N2CCOCC2)cc1 (centres undefined)	/	/	/	0	4	-2.9	0.66	-0.5	0.2	i
34	COc1ccc(-n2cnnc2SCC(=O)N(C)c2ccccc2)cc1	0.2	-3	-2	4	5	-2.6	0.67	0.8	-2.9	i
35	O=C(O)/C(=C\c1ccco1)NC(=O)c1ccc(Br)o1	-0.3	2	-17	28	22	8.1	0.66	0.4	8.3	i
36	O=C(Nc1nnc(C2CC2)s1)c1cc(-c2ccccc2)nn1-c1ccccc1	0.9	10	16	/	/	/	0.74	/	5.6	/
37	Fc1ccc(N2CCN(C3CCC(c4ccccc4)CC3)CC2)cc1 (centres undefined)	-1.7	-15	14	-18	-14	-5.1	0.68	3.6	1.1	i
38	COc1ccc(NS(=O)(=O)c2ccc3oc4ccccc4c3c2)cn1	0.4	-5	-9	/	/	/	0.68	/	2.7	/
39	CCCS(=O)(=O)N1CCN(C(=O)c2ccccc2F)CC1	0.5	3	-16	/	/	/	0.69	/	-0.2	/
40	C[C@@H]1CN([C@H](C)CO)C(=O)c2cc(NC(=O)Nc3ccc(C(F)(F)F)cc3)ccc2O[C@H]1CN(C)S(=O)(=O)c1cccs1	-0.3	?	/	-5&-2	0&-12	-1.4&1.1	/	-4.2	0.4	i
41	COc1ccccc1N(C)S(=O)(=O)c1ccc(Cl)c(C(=O)N2CCC2)c1	1.0	0	?	2	0	-2.4	0.71	-1.0	1.3	i
42	COc1ccc(Cl)cc1NC(=O)CCS(=O)(=O)c1ccc(Br)cc1	0.9	2	-1	-3	2	6.1	0.7	-15	-0.7	i
43	O=C(C1COc2ccccc2O1)N1CCN(c2nc3ccc([N+](=O)[O-])cc3s2)CC1 (centres undefined)	-0.1	/	-12	-1	-1	-0.9	0.69	-14	-3.9	i
44	C=CCOC(=O)c1ccc(-n2cncn2)nc1	0.5	-1	-1	/	/	/	0.63	/	1.7	/
45	COc1ccc2[nH]c(C(=O)NCc3ccc4c(c3)OCO4)cc2c1	-1.1	-4	15	-2	-3	-1.1	0.61	0.7	-32	i
46	COc1ccccc1OCC(=O)Nc1ccc(S(=O)(=O)Nc2nc(C)cc(C)n2)cc1	0.4	/	-29	-6	-1	-6.0	0.63	4.4	-2.9	i
47	CN1CCN(NC(=S)Nc2ccc(Oc3ccccc3)cc2)CC1	1.1	-4	12	-3	-2	0.4	0.7	2.7	0.6	i
48	N#C/C(=C/C1=C(N2CCOCC2)C(=C/c2ccc(Cl)cc2)/CC1)C(=O)Nc1ccccc1F	/	/	/	0	5	24	0.74	0.5	12	i
49	C/C(=N\NC(=O)c1c(Cl)c(C)nn1C)c1ccc(NC(=O)C2CCC2)cc1	1.7	12	23	-1	2	-2.8	/	-1.4	/	i
50	CCOC(=O)C1=C(C)c2ccccc2OC1(C(=O)OCC)C(C)C (centres undefined)	/	/	/	-7	-3	-3.0	0.69	3.1	0.7	i
51	CC(=O)O[C@H]1CC[C@H]2[C@@H]3CCc4cc(O)ccc4[C@H]3CC[C@]12C	-0.4	-1	-5	/	/	/	/	5.6	0.3	/
52	N#CCCN(C(=O)COC(=O)CNC(=O)c1ccc(-c2ccccc2)cc1)c1ccc(F)cc1	0.5	5	-31	-5	-8	0.1	0.64	-0.7	0.7	i
53	CN(C)c1ccc(NC(=O)CCn2c(=S)oc3ccccc32)cc1	0.5	4	36	15	14	-1.7	0.73	1.9	1.8	i
54	O=C(/C=C/c1ccco1)NCC(=O)N/N=C/c1ccc(Cl)cc1	-1.4	-2	-23	-1	2	-2.7	/	0.3	/	i
55	CNC(=S)NNC(=O)c1sc(-c2cc(C)on2)nc1C	0.5	1	0	13	-2	2.6	0.7	-5.4	1.9	i
56	CCCn1nc(NC(=O)c2ccccn2)c2cc3cc(C)ccc3nc21	-0.1	-2	13	/	/	/	0.71	/	-32	/
